Cruzain inh Det = cruzain (T. cruzi) inhibition with detergent | P25779 | Potency, µM, without a hit: max response, negative = inhibition, actives largely listed as inhibitors | actives 0.43% (n = 200,000) | purified cruzain, Z-FR-AMC fluorescence, 0.01% Triton; active = well fitted curve in the direction sought with a large enough effect; inconclusive = small, poorly fitted or top-dose-only effect, or another doubt; inactive = no such curve, though single readings can be large; an effect the other way counts as inactive or inconclusive;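 note: plate controls were neutral wells for no effect and buffer without enzyme for full effect; nearly all actives have a fitted effect of over 40% in size; top concentration of the series not given in the record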
Target sequence (P25779 123-467 limits assumed): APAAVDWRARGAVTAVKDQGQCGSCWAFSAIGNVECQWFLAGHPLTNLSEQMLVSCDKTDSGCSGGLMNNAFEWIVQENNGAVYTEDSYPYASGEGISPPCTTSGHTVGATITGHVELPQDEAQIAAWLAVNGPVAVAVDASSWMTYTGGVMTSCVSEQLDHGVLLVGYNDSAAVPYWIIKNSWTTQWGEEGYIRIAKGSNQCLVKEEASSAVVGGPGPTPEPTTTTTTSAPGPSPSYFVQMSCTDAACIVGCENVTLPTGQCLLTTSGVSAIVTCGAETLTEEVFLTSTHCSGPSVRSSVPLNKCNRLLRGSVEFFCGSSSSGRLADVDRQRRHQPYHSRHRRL
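In this qHTS format, compounds are incubated with 1.5 nM cruzain for 15 min at room temperature before 2 uM Z-FR-AMC is added. Release of AMC is followed at 360/450 nm, and progress is taken as the 60 s fluorescence difference.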
MARV entry inh = Marburg virus entry inhibition; Marburg virus pseudotyped entry inhibition, cell reporter; control for the full effect not named in the record; about a third of the inactives were read at about 46 µM; AID 540276; actives 1.8% (n = 300,000); Potency, µM (titrated, usually from 37.8 µM), for the others: at the highest dose activity change, negative = inhibition, hits mostly inhibitors; active = well fitted inhibition curve with a large enough effect; inconclusive = small, poorly fitted or top-dose-only effect, or effect the other way; inactive = flat fitted curve, though single readings scatter; tested in HEK293 cells; about a fifth of its hits are not listed in these tables; note: % is set by controls: 0 for no effect and ±100 for the full control effect; luciferase read-out
SARS PLpro yeast = SARS-CoV PLP inhibition in yeast; S. cerevisiae expressing SARS-CoV PLpro, growth rescue; control for the full effect not named in the record; Potency, µM (series often up to 32.9 µM), inactives show at the top dose activity, positive = growth rescue; actives 0.19% (n = 330,000); note: 0% is about no effect; nearly all actives have a fitted effect of over 55% in size; growth read by luminescence after 48 h
Cruzain inh noDet = inhibitors of Trypanosoma cruzi cruzain without detergent. P25779. purified cruzain, Z-FR-AMC fluorescence, no detergent. Potency, µM, for the others: max response, negative = inhibition, actives largely listed as inhibitors. actives 2.3% (n = 200,000); active = well fitted curve in the direction sought with a large enough effect; inconclusive = small, poorly fitted or top-dose-only effect, or another doubt; inactive = no such curve, though single readings can be large; an effect the other way counts as inactive or inconclusive;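 note: plate controls were enzyme without inhibitor for no effect and buffer without enzyme for full effect; nearly all actives have a fitted effect of over 40% in size; top concentration of the series not given in the record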
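Detergent-free condition (0.00005% Triton X-100) in acetate buffer pH 5.5 with DTT. 1.5 nM enzyme and compound were pre-mixed 15 min, then 2 uM Z-FR-AMC substrate added; reaction progress from fluorescence change between first and third reads (60 s).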
RE007 growth inh = less growth of the S. pombe RE007 Vpr strain; actives 0.21% (n = 360,000); S. pombe RE007 Vpr strain, BacTiter-Glo ATP luminescence, 24 h; control for the full effect not named in the record; Potency, µM (titrated, usually from 92.2 µM), for inactives: top-dose activity change, negative = less growth; AID 651644; active = well fitted falling curve with a large enough effect; inconclusive = small, poorly fitted or top-dose-only effect; inactive = no such curve, though single readings can be large or run the other way;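 note: % is set by controls: 0 for no effect and ±100 for the full control effect; nearly all actives have a fitted effect of over 50% in size; the assay follows cell death caused by Vpr and the record does not say whether a fall means rescue or toxicity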
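Fission yeast RE007 carrying one integrated HIV-1 vpr copy, seeded at OD 0.01 in PMG+AL medium with 23 nL pinned compound. Grown 24 h at 30 degrees; viability read by BacTiter-Glo luminescence after 5 min.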
LASV entry inh = Lassa virus entry inhibition; actives 1.2% (n = 300,000); Lassa virus pseudotype entry inhibition, cell reporter; control for the full effect not named in the record; AID 540256; Potency, µM (series often up to 37.9 µM), inactives show at the highest dose activity change, negative = inhibition, hits mostly inhibitors; active means well fitted inhibition curve with a large enough effect; inconclusive means small, poorly fitted or top-dose-only effect, or effect the other way; inactive means flat fitted curve, though single readings scatter; tested in HEK293 cells; note: % is set by controls: 0 for no effect and ±100 for the full control effect; nearly all actives have a fitted effect of over 50% in size; luciferase read-out
NS1 inh = blocks influenza NS1 protein function; S. cerevisiae slowed by influenza A NS1, growth recovery by OD600; Potency, µM (top dose mostly 46.1 µM), without a hit: at the top dose activity, positive = more growth; actives 0.4% (n = 270,000); AID 2326; note: actives are rising curves; nearly all actives have a fitted effect of over 50% in size
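In this qHTS, NS1 from influenza A is expressed in budding yeast, where it slows growth. Cells are switched from glucose to 2% galactose medium (pH 6.0, -URA), treated with compound, and growth recovery is read at OD600.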
2A StopGo = lowers the luciferase signal of an FMDV 2A StopGo reporter; Potency, µM (highest dose often 57.9 µM), without a hit: at the highest dose signal change, negative = less light; human cells with a luciferase reporter of 2A StopGo recoding; control for the full effect not named in the record; actives 1.2% (n = 410,000); active = well fitted falling curve with a large enough effect; inconclusive = small, poorly fitted or top-dose-only effect; inactive = no such curve, though single readings can be large or run the other way; tested in HEK293T cells; note: % is set by controls: 0 for no effect and ±100 for the full control effect; nearly all actives have a fitted effect of over 45% in size; luciferase light after 4 h
* hit, by the source's call; & = joins results of further samples; [ ] = dose if it differs, or a comment. Unless noted, calls come from the whole dose curve; as a rule, active means well fitted rising curve with a large enough effect; inconclusive means small, poorly fitted or top-dose-only effect; inactive means no such curve, though single readings can be large or run the other way. Potency is the fitted concentration of half-maximal effect.

How did CN(Cc1cccnc1)C(=O)c1ccc2nc(Cc3ccccc3F)oc2c1 do in these assays?
SARS PLpro yeast: -2%; RE007 growth inh: -2%; NS1 inh: -13%; 2A StopGo: 19%

How did OCCC1CN(C2CCSCC2)CCN1C1CCCC1 (configuration not stated) do in these assays?
MARV entry inh: -10%[46.1 µM]; SARS PLpro yeast: 0%; RE007 growth inh: -2%; LASV entry inh: 16%; NS1 inh: 3%; 2A StopGo: -1%

Results for Cc1ccc(C(=O)N2c3ccc(C)cc3C(C)(c3ccccc3)CC2(C)C)cc1 (configuration not stated) ?
Cruzain inh Det: -4.3%; Cruzain inh noDet: inconclusive; LASV entry inh: 15%[46.1 µM]; 2A StopGo: 0%

What do the screens show for `COCCNC(=O)c1c(N)n(Cc2ccco2)c2nc3ccccc3nc12`?
Cruzain inh Det: -10%; MARV entry inh: -22%; SARS PLpro yeast: -3%; Cruzain inh noDet: inconclusive; RE007 growth inh: 3%; LASV entry inh: 1%; NS1 inh: 10%

What do the screens show for `O=C(CCSCc1ccccc1Cl)NCCc1ccccc1`?
Cruzain inh Det: -0.3%; Cruzain inh noDet: -10%; LASV entry inh: 12%[46.1 µM]; 2A StopGo: 8%

Results for CC(C)c1ccc(NC(=O)COC(=O)CSc2nnc(N)s2)cc1 ?
Cruzain inh Det: -1.1%; MARV entry inh: 6%; SARS PLpro yeast: 20%; Cruzain inh noDet: -6%; RE007 growth inh: -17%; LASV entry inh: 12%; NS1 inh: 2%; 2A StopGo: -1%

Results for COc1ccccc1OC(C)C(=O)N1CCC(c2nc3ccccc3s2)CC1 (configuration not stated) ?
Cruzain inh Det: -5.6%; MARV entry inh: 0%[46.1 µM]; Cruzain inh noDet: inconclusive; LASV entry inh: 0%[46.1 µM]; 2A StopGo: inconclusive

What do the screens show for `O=[N+]([O-])c1ccc2c(c1)OCCOCCOCCOCCOCCOCCO2`?
Cruzain inh Det: -6.1%; MARV entry inh: inconclusive; SARS PLpro yeast: 22%; Cruzain inh noDet: 5%; RE007 growth inh: -5%; LASV entry inh: 8%; NS1 inh: -4%; 2A StopGo: -10%

How did O=C(CN1C(=O)C2C3CCC(C3)C2C1=O)Oc1ccc2ccccc2c1 (configuration not stated) do in these assays?
Cruzain inh Det: -5.8%; MARV entry inh: -17%; SARS PLpro yeast: 8%; Cruzain inh noDet: 10%; RE007 growth inh: -21%; LASV entry inh: -6%; NS1 inh: 3%; 2A StopGo: -11%

What do the screens show for `COc1ccc(N2C(=O)c3ccccc3NC2c2ccccc2O)cc1` (configuration not stated)?
SARS PLpro yeast: 1%; RE007 growth inh: 8%; NS1 inh: -1%; 2A StopGo: 16%

How did COc1cc(OC)nc(Oc2ccccc2C(=O)Oc2ccc(F)cc2Cl)n1 do in these assays?
Cruzain inh Det: -4.8%; MARV entry inh: -18%; SARS PLpro yeast: -20%; Cruzain inh noDet: 5%; RE007 growth inh: 3%; LASV entry inh: -16%; NS1 inh: -24%

What do the screens show for `CC12CCC(C(=O)NNc3ccccc3)(OC1=O)C2(C)C` (configuration not stated)?
SARS PLpro yeast: 0%; RE007 growth inh: 9%; NS1 inh: -4%; 2A StopGo: 1%

What do the screens show for `Cc1ccccc1CN1CCCNC1=O`?
MARV entry inh: 3%; SARS PLpro yeast: 2%; RE007 growth inh: 7%; LASV entry inh: -3%; NS1 inh: 20%; 2A StopGo: -18%

What do the screens show for `CCN(CC)CCN(Cc1cc2cc3c(cc2[nH]c1=O)OCCO3)C(=S)NCC1CCCO1` (configuration not stated)?
MARV entry inh: 6%[46.1 µM]; SARS PLpro yeast: -1%; RE007 growth inh: -11%; LASV entry inh: 11%[46.1 µM]; NS1 inh: 6%; 2A StopGo: 20%

How did Cc1nc2ccccn2c1-c1ccnc(SCc2ccc(Cl)cc2)n1 do in these assays?
MARV entry inh: -21%[46.1 µM]; SARS PLpro yeast: 1%; RE007 growth inh: 0%; LASV entry inh: -8%; NS1 inh: 0%; 2A StopGo: inconclusive

What do the screens show for `Cc1ccc(NC(=O)CNc2ccc(OC(C)C)cc2)cc1`?
Cruzain inh Det: -5.2%; MARV entry inh: 18%; SARS PLpro yeast: 12%; Cruzain inh noDet: -3%; RE007 growth inh: -8%; LASV entry inh: -9%; NS1 inh: -75%; 2A StopGo: 26%

What do the screens show for `COC(=O)c1ccc(NC(=S)NC2c3ccccc3CC2O)cc1` (configuration not stated)?
MARV entry inh: 13%[46.1 µM]; SARS PLpro yeast: 0%; RE007 growth inh: 8%; LASV entry inh: 7%; NS1 inh: -4%; 2A StopGo: 27%

How did Cc1cc(NC(=O)CCCN2C(=O)c3cccnc3C2=O)ccc1Br do in these assays?
MARV entry inh: 19%[46.1 µM]; SARS PLpro yeast: 4%; RE007 growth inh: -7%; LASV entry inh: 9%; 2A StopGo: -12%

Results for O=C(Nc1cnn(Cc2ccc(Cl)cc2Cl)c1)c1noc2c1CCc1ccccc1-2 ?
Cruzain inh Det: -6.4%; MARV entry inh: inconclusive; Cruzain inh noDet: 7.9µM*; LASV entry inh: 11%[46.1 µM]; 2A StopGo: 3%

What do the screens show for `COC(=O)c1c(NC(=O)c2ccc(C)c(S(=O)(=O)Nc3ccccc3C)c2)sc2c1CCCC2`?
Cruzain inh Det: 0.7%; MARV entry inh: -17%; SARS PLpro yeast: 1%; Cruzain inh noDet: 7.9µM*; RE007 growth inh: 5%; LASV entry inh: -2%; NS1 inh: 11%; 2A StopGo: 0%

Results for CC(C)Cc1ccc(CN2CCCC(NC(=O)c3cnc4ccccn4c3=O)C2)cc1 (configuration not stated) ?
MARV entry inh: -18%[46.1 µM]; RE007 growth inh: -5%; LASV entry inh: inconclusive; 2A StopGo: inconclusive

How did COc1ccc(CNC(=O)C/C(C)=N/NC(=O)C23CC4CC(CC(C4)C2)C3)cc1 do in these assays?
MARV entry inh: 3%[46.1 µM]; SARS PLpro yeast: -1%; RE007 growth inh: -2%; LASV entry inh: -1%; NS1 inh: -1%; 2A StopGo: -4%

How did CCN(CC)CCNC(=O)c1ccc(NC(=O)Cc2ccsc2)cc1 do in these assays?
MARV entry inh: 7%[46.1 µM]; SARS PLpro yeast: -4%; RE007 growth inh: -6%; LASV entry inh: 1%[46.1 µM]; NS1 inh: -13%; 2A StopGo: 4%

Results for Cc1noc(C)c1C(=O)N(CC(C)C)c1nc2ccccc2s1 ?
SARS PLpro yeast: 1%; RE007 growth inh: -13%; NS1 inh: 3%; 2A StopGo: inconclusive

How did CC(C)(C)c1ccc(S(=O)(=O)N2CCN(CC(O)CN3CCOCC3)CC2)cc1 (configuration not stated) do in these assays?
MARV entry inh: -6%; SARS PLpro yeast: -15%; RE007 growth inh: -2%; LASV entry inh: -4%; 2A StopGo: -11%

How did COc1cc(C)c(S(=O)(=O)N2CCCC2)cc1C(C)C do in these assays?
MARV entry inh: -23%[46.1 µM]; SARS PLpro yeast: -1%; RE007 growth inh: 3%; LASV entry inh: -24%; NS1 inh: -45%; 2A StopGo: 13%

How did C=CCC(CC)C(=O)NC(=O)N1CCCc2ccccc21 (configuration not stated) do in these assays?
MARV entry inh: inconclusive; SARS PLpro yeast: 2%; RE007 growth inh: 2%; LASV entry inh: 8%[46.1 µM]; NS1 inh: 6%; 2A StopGo: 9%

Results for Cc1ccc(COC(=O)c2nn(C)c(=O)c3ccccc23)cc1 ?
MARV entry inh: 27%[46.1 µM]; SARS PLpro yeast: 0%; RE007 growth inh: 7%; LASV entry inh: inconclusive; 2A StopGo: inconclusive

How did O=[N+]([O-])c1cc(F)c(N2CCCCC2)cc1Br do in these assays?
MARV entry inh: -7%[46.1 µM]; SARS PLpro yeast: 0%; RE007 growth inh: -4%; LASV entry inh: 21%; NS1 inh: -33%; 2A StopGo: -27%

What do the screens show for `O=c1[nH]nc(SCCS(=O)(=O)c2ccc(F)cc2)n1-c1ccc2c(c1)OCCO2`?
MARV entry inh: inconclusive; SARS PLpro yeast: 0%; RE007 growth inh: 2%; LASV entry inh: -16%[46.1 µM]; NS1 inh: 0%; 2A StopGo: -28%

What do the screens show for `CCCCC1=CC2=C(c3ccco3)C(=O)C(C)(OC(=O)c3ccc(OC)cc3)C(=O)C2=CN1CCCN(CC)CC` (configuration not stated)?
MARV entry inh: 3%&3%[14.2 µM]; SARS PLpro yeast: 1%; RE007 growth inh: -9%; LASV entry inh: inconclusive; NS1 inh: 10%; 2A StopGo: -24%

What do the screens show for `Cn1c(=O)oc2cc(S(=O)(=O)N3CCc4ccccc4C3)ccc21`?
Cruzain inh Det: 6.2%; SARS PLpro yeast: 5%; Cruzain inh noDet: -1%; RE007 growth inh: 29%; NS1 inh: -1%; 2A StopGo: -17%

What do the screens show for `COc1ccc(-c2cc(C(=O)NCCc3ccccc3)c3c(-c4ccc(Cl)cc4)[nH]nc3n2)cc1`?
Cruzain inh Det: 0.4%; Cruzain inh noDet: -8%; LASV entry inh: -13%[46.1 µM]; 2A StopGo: -13%

How did Cc1nc(-c2ccc(S(=O)(=O)N3CCN(c4cccc(C(F)(F)F)c4)CC3)cc2)co1 do in these assays?
Cruzain inh Det: -10.0%; Cruzain inh noDet: 12%; LASV entry inh: 13%[46.1 µM]; 2A StopGo: 0%

How did O=C(CN1CCCCC1)Nc1ccccc1Oc1ccccc1 do in these assays?
MARV entry inh: inconclusive; SARS PLpro yeast: 1%; RE007 growth inh: 6%; LASV entry inh: -1%; NS1 inh: 1%; 2A StopGo: -20%

2 entries drawn at random from the list so far, as already listed:
What do the screens show for `O=c1[nH]nc(SCCS(=O)(=O)c2ccc(F)cc2)n1-c1ccc2c(c1)OCCO2`?
MARV entry inh: inconclusive; SARS PLpro yeast: 0%; RE007 growth inh: 2%; LASV entry inh: -16%[46.1 µM]; NS1 inh: 0%; 2A StopGo: -28%

What do the screens show for `COc1ccc(N2C(=O)c3ccccc3NC2c2ccccc2O)cc1` (configuration not stated)?
SARS PLpro yeast: 1%; RE007 growth inh: 8%; NS1 inh: -1%; 2A StopGo: 16%

Assay outcomes as filed in PubChem BioAssay.
